Source: PubChem (ICCB-Longwood Screening Facility, Harvard Medical School)
AID504770 = E. coli YBA685 growth inhibition, screen for V. cholerae RctB inhibitors; z-score (concentration not given with the values); E. coli YBA685 rctB-dependent plasmid, OD600 growth, 3 h; hits give low values; AID 504770; hit rate 0.27% among 130,000;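 active = z-score under -2 on both plates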;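 also: wells of about 30 µL received 100 nL stock; score is relative to mean and SD of the test wells; the first replicate is given; strong numbers were not always called active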
CapD inh = blocks the Bacillus anthracis CapD enzyme; z-score (no concentration beside the values); hit rate 0.23% among 140,000; AID 492967; purified CapD enzyme, fluorescence intensity read-out; hits give low values; some hits fall short of the stated cut;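 active = z-score under -4 in either of two replicates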;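 also: stock transfer was 100 nL into about 40 µL; score is relative to mean and spread of the plate; one replicate is shown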
Starred values were filed as active, the others as inactive; nt = not tested or not shown.

nr	Compound	CapD inh	AID504770
1	O=C(Nc1ccc2c(c1)OCO2)C1c2ccccc2Oc2ccccc21	-0.14	0.95
2	N#CC1=C(N)Oc2c(c(=O)oc3ccccc23)C1c1ccc(F)cc1Br (centres undefined)	0.16	nt
3	O=C(COn1nnc2ccc(Cl)cc21)NC1CCCc2ccccc21 (centres undefined)	nt	2.5
4	O=S(c1ccc(Cl)cc1)c1ccc(-c2ccccn2)s1 (centres undefined)	0.21	1.3
5	O=C(c1ccc2c(c1)[nH]c(=S)n1c3ccccc3nc21)N1CCN(c2ccc(F)cc2)CC1	-0.33	nt
6	COC(=O)c1sc(-c2ccc(C(C)(C)C)cc2)cc1N	14	0.1
7	Cc1csc(-c2sc3ccccc3c2O)n1	26	0.15
8	CC1CCN(C(=O)C2CCN(c3nnc(-n4cccc4)s3)CC2)CC1	0.16	1.3
9	CCn1c(C)c(CCC(=O)N2CCCC2)c(=O)n2nc(-c3ccccc3OC)cc12	-0.2	0
10	CCCOc1ccc(Cc2nc(N)c(NC(C)=O)c(=O)[nH]2)cc1	0.84	-0.4

Next part.
nr	Compound	CapD inh	AID504770
11	CC1CN(S(=O)(=O)CC23CCC(CC2=O)C3(C)C)CC(C)O1 (centres undefined)	0.06	-0.15
12	Cc1onc(-c2c(Cl)cccc2Cl)c1C(=O)Nc1sc2c(c1C(N)=O)CCC(C)C2 (centres undefined)	0.05	nt
13	COCCOC(=O)C1=C(C)NC(=O)NC1c1cc2c(cc1Br)OCO2 (centres undefined)	-0.45	nt
14	O=P(O)(Nc1ccccc1)Nc1ccccc1	-0.06	-0.95
15	CCOC(=O)c1c(C)[nH]c(C(=O)Cn2ncc(Cl)c(Cl)c2=O)c1C	nt	0.4
16	Cc1csc(C(C#N)C(=O)CSc2nc3ccccc3n2-c2ccccc2)n1 (centres undefined)	nt	1.4
17	Cc1ccc(N2CCN(C(=O)c3nc(-c4ccncc4)no3)CC2)c(C)c1	0.3	0.05
18	O=C(OCN1C(=O)c2ccccc2C1=O)c1ccc2ncsc2c1	nt	-0.3
19	Cc1ccc(C)c(OCC(=O)N(Cc2nnc(-c3ccc(Cl)cc3)o2)C2CC2)c1	nt	0.4
20	Cc1ccc2c(c1)N(C(=O)Nc1ccccc1)C(C)(C)CC2C (centres undefined)	1	nt

Continued:
nr	Compound	CapD inh	AID504770
21	COc1cc(C=C2C(=O)NC(=S)NC2=O)cc(Cl)c1OCCOc1ccccc1C	-0.34	nt
22	CC(C)=C(C#N)c1nc2ccccc2[nH]1	0.2	-1.1
23	N=c1sccn1CC(=O)c1cccs1	0.16	0.35
24	c1ccc(CN2CCC(Nc3ncnc4sccc34)CC2)cc1	-0.12	-0.75
25	O=C([C@H](Cc1ccccc1)N1Cc2ccccc2C1=O)N1CCN(c2ccc(F)cc2)CC1	-0.25	-0.4
26	O=C(CCc1c[nH]c2ccccc12)NCCc1ccncc1	0.74	nt
27	N#C/C=C/N1CCC(CCCC2CCN(/C=C/C#N)CC2)CC1	nt	-0.4
28	Cc1cccc(OCCCC(=O)N2CCN(S(=O)(=O)c3ccc4c(c3)OCCO4)CC2)c1	nt	-0.2
29	Nc1ccc(Oc2cc(C(F)(F)F)cc(C(F)(F)F)c2)cc1	-0.54	nt
30	CN(C)c1ccc(C(=O)Nc2ccccc2N2CCOCC2)cc1	0.88	-0.35

Additional compounds follow.
nr	Compound	CapD inh	AID504770
31	O=C(CN1C(=O)c2ccccc2C1=O)OCc1ccccc1	0.49	0.15
32	CCC(C)OC(=O)C1=C(C)NC(=O)NC1c1cc(Br)c(O)c(OC)c1 (centres undefined)	-0.29	nt
33	Cn1cccc1/C=N/n1c(COc2ccccc2)n[nH]c1=S	-2	-0.5
34	C=CCN1Cc2ccc3ccccc3c2-c2c(ccc3ccccc23)C1	1.3	0.9
35	CCc1ccc(NC(=O)CSc2nc3c(c(=O)n2CC)SC(C)C3)cc1 (centres undefined)	58	0
36	CCn1c(=N)c(S(=O)(=O)c2ccc(C)cc2)cc2c(=O)n3ccccc3nc21	nt	-0.05
37	C/C(N)=C(/C#N)C(=O)CSc1nnc(-c2ccc(Cl)cc2)n1CC1CCCO1 (centres undefined)	nt	-0.1
38	Cc1ccc(-c2nc(N3CCC(C(N)=O)CC3)c3ccccc3n2)cc1	0.51	nt
39	CCC(=O)Nc1ccc(C(=O)N2CCN(CC)CC2)cc1	0.34	-0.05
40	CC(C)c1nnc(NCC(C)(C)C)s1	0.32	0.1

Next results follow.
nr	Compound	CapD inh	AID504770
41	O=C(COC(=O)C12CC3CC(CC(Br)(C3)C1)C2)N1CCCCC1	0.12	-0.85
42	CC1C(O)CCC1(C(=O)O)c1ccccc1 (centres undefined)	0.47	-0.5
43	CC(C)n1cc(-c2cnc3ccccc3c2)cn1	20	nt
44	Cc1ccccc1-c1noc(-c2nnn(-c3ccc(C(F)(F)F)c(Cl)c3)c2N)n1	0.81	0.05
45	O=C(c1ccc2c(c1)N(Cc1cccc(Cl)c1)C(=O)CS2)N1CCOCC1	0.44	-0.35
46	COc1ccc(NC(=O)CCc2nc3cccnc3n2Cc2cccs2)cc1OC	4.1	-0.05
47	Cc1ccc2nc(-c3ccc(Br)o3)c(Nc3ccc4c(c3)OCCO4)n2c1	3.1	1.6
48	CCCN(CC1CC1)C(=O)CSc1nc2ccccc2[nH]1	nt	0.1
49	O=C(CSCn1nnc2c(=O)[nH]c(Cc3ccc(F)cc3)nc21)Nc1ccc(F)cc1	0.29	-0.65
50	O=C(CN1C(=O)C2(OCCO2)c2cc([N+](=O)[O-])ccc21)c1ccccn1	-1.9	nt

New compounds follow:
nr	Compound	CapD inh	AID504770
51	N#CC(C(=S)Nc1ccccc1)c1nc2ccccc2[nH]1 (centres undefined)	-0.34	0
52	N#Cc1cn(Cc2ccccc2)c2ccccc12	-0.23	-0.25
53	C/C(=C\c1ccccc1)[N+](=O)[O-]	0.66	nt
54	Cc1ccc2c(CC(=O)NCC3COc4ccccc4O3)coc2c1 (centres undefined)	nt	-0.95
55	NC(=O)c1cccc(CSCc2csc3ccccc23)c1	0.46	0
56	c1ccc(CN2CCN(Cc3ccc4c(c3)OCO4)CC2)cc1	0.26	0.2
57	O=C(c1cnc2c(c1)COc1ccccc1-2)c1cc(Cl)ccc1O	-0.12	-0.2
58	CC(=O)N1CC(=O)N(O)C1c1ccc(Cl)cc1Cl (centres undefined)	0.24	0.8
59	CN(C)CCN(Cc1ccccc1)Cc1ccc(Cl)cc1	0.17	-0.85
60	CCOC(=O)Nc1nc2c(Cl)cccc2s1	0.55	0.75

New compounds follow:
nr	Compound	CapD inh	AID504770
61	O=C(NCc1cc2ccccc2s1)c1ccccc1N1CCOCC1	0.075	0.2
62	COc1cc(C)nc(NC(=O)Nc2sc(NS(=O)(=O)c3ccccc3)nc2C)n1	-1	nt
63	CNC(=O)Cc1csc2ccc(Cl)cc12	-0.65	-0.95
64	Oc1cccc(/C=N/N2CCCCC2)c1O	-1.1	-0.25
65	CC1CCCCC1Nc1nc2ccccc2n2nnnc12 (centres undefined)	51	-1.2
66	COC(=O)C(N)Cc1ncc(C(F)(F)F)cc1Cl (centres undefined)	0.17	1.4
67	CCOC(=O)COc1cccc2c(=O)n(CC(=O)NCc3ccc4c(c3)OCO4)ccc12	nt	-0.35
68	O=C(Nc1nnc(C2CC2)s1)C1Cc2ccccc2CN1S(=O)(=O)c1ccccc1F (centres undefined)	nt	-1.1
69	CN(c1ccccc1)S(=O)(=O)c1cccc(C(=O)OCc2nnc(-c3ccccc3)o2)c1	nt	-1.2
70	Cc1ccc(S(=O)(=O)N2CCC(c3cc(-c4ccco4)n[nH]3)CC2)cc1	0.005	nt

Ordered by count of non-hydrogen atoms (lowest first): part of the list above
nr	Compound	CapD inh	AID504770
63	CNC(=O)Cc1csc2ccc(Cl)cc12	-0.65	-0.95
64	Oc1cccc(/C=N/N2CCCCC2)c1O	-1.1	-0.25
66	COC(=O)C(N)Cc1ncc(C(F)(F)F)cc1Cl (centres undefined)	0.17	1.4
65	CC1CCCCC1Nc1nc2ccccc2n2nnnc12 (centres undefined)	51	-1.2
68	O=C(Nc1nnc(C2CC2)s1)C1Cc2ccccc2CN1S(=O)(=O)c1ccccc1F (centres undefined)	nt	-1.1
67	CCOC(=O)COc1cccc2c(=O)n(CC(=O)NCc3ccc4c(c3)OCO4)ccc12	nt	-0.35

(next part)
nr	Compound	CapD inh	AID504770
71	O=C1C(c2ccccc2)=C(c2ccccc2)c2ccccc21	0.02	nt
72	COc1ccc(CCNC(=O)c2ccc(OC)cc2)cc1	nt	-0.05
73	CCc1nn(CC(=O)NCc2ccc(OC)c(OC)c2)c(=O)c2cc3occc3n12	-1.7	0.95
74	NC(=O)SCC(=O)Nc1ccc(Cl)cc1Cl	0.13	-0.2
75	O=C(CCn1c(=O)c2cccn2c2ccccc21)Nc1ccccc1F	0.41	-0.25
76	Nc1c(C(=O)NC2CC2)sc2nc(-c3ccccc3)cc(-c3ccc(F)cc3)c12	0.67	nt
77	CCCc1cc(=O)[nH]c(/N=C(\N)Nc2cc(Cl)ccc2OC)n1	-0.16	-1.1
78	COc1ccc(OC)c(S(=O)(=O)N2CCCc3ccccc32)c1	0.76	nt
79	CSc1nnc(-c2ccc(S(=O)(=O)N3CCCC3)cc2)n1C	nt	-0.25
80	CC1CCC2C(=O)N(CNc3ccc(Oc4ccc(Br)cc4)cc3)C(=O)C2C1 (centres undefined)	-0.085	nt

(listing goes on)
nr	Compound	CapD inh	AID504770
81	O=C(N/N=C/c1ccc(N2CCCC2)cc1)c1ccccc1CCc1ccccc1	18	nt
82	Cc1cccc(N2CCN(C(=O)CCn3c(=S)[nH]c4cc5c(cc4c3=O)OCO5)CC2)c1C	0.9	-1.4
83	COC(=O)C1=C(C(=O)OC)SC(=C2C(=S)C(C)(C)N(C(=O)CN3C(=O)c4ccccc4C3=O)c3c(OC)cccc32)S1	-0.11	nt
84	Cc1ccccc1C(=O)Nc1ccc2nc(NC(=O)c3ccccc3C)sc2c1	2.3	nt
85	CC(C)(C)CCNS(=O)(=O)c1ccc(Oc2cccc(Cl)c2C#N)cc1	0.32	nt
86	C=CCN(CC=C)C(=S)Nc1ccc(S(=O)(=O)N2CCOCC2)cc1	nt	0.7
87	COc1ccc(NC(=O)c2ccccc2OC)cc1OC	-0.82	2.2
88	CN(C)c1ccc(C2NCC(CSc3nc4ccccc4s3)O2)cc1 (centres undefined)	-1.7	-0.2
89	Cc1ccc(-c2noc(CN(C(=O)CCc3ccccc3)C(C)C)n2)cc1	0.28	0.45
90	COC(=O)c1ccc(S(=O)(=O)NNc2c(Cl)cncc2Cl)n1C	-0.11	-0.25

Next structures.
nr	Compound	CapD inh	AID504770
91	O=S(=O)(c1ccc(-n2cccn2)cc1)N1CCCC2CCCCC21 (centres undefined)	-2.2	2.9
92	COC(=O)C1=C(C(=O)OC)SC(=C2C(=S)C(C)(C)N(C(=O)c3cccc(Br)c3)c3ccccc32)S1	-0.21	nt
93	COc1cc(-c2cc(NC(=O)Cc3noc4ccc(C)cc34)on2)cc(OC)c1OC	0.29	-0.9
94	COC(=O)C(c1ccccc1)C1(O)CC(C)N(C)CC1C (centres undefined)	0.63	-0.05
95	COc1ccc(OC)c(N2C(=N)/C(=C(/O)c3ccc(C)cc3)C(c3ccc4c(c3)OCO4)C3=C2CCCC3=O)c1 (centres undefined)	0.09	nt
96	O=C1CC(c2ccccc2)c2c(ccc3ccccc23)N1 (centres undefined)	3.7	-0.95
97	CC(C)n1cc(-c2ccc(S(C)(=O)=O)cc2NC(=O)C(C)(C)C)cn1	0.14	nt
98	COc1ccc(OC)c(/C=C2/C(=O)Nc3ccccc32)c1	-2.6	nt
99	Cc1nn(CCC#N)c(C)c1Cc1c(Cl)cccc1Cl	0.21	0.65
100	COc1ccc(C(=O)Nc2nnc(-c3ccccc3)o2)cc1OC	-0.08	1.6

Next part.
nr	Compound	CapD inh	AID504770
101	C=CCn1c(CNC(=O)OC(C)(C)C)n[nH]c1=S	0.56	nt
102	C=CCn1c2ccccc2c2nnc(SCC(=O)OCN3C(=O)c4ccccc4C3=O)nc21	0.02	-0.7
103	O=C1C2C(C(=O)C3C1C1C=CC3C13CC3)C1C=CC2C12CC2 (centres undefined)	0.54	-0.2
104	CC(=O)Oc1ccc(C(=O)Nc2cccc(-c3nc4ccc(NC(=O)c5ccc(OC(C)=O)cc5)cc4o3)c2)cc1	1.1	nt
105	O=C(Cc1c(O)c2ccccc2oc1=O)c1ccc(C(F)(F)F)cc1	0.3	-0.45
106	COCCOC(=O)c1c(NC(=O)COC(=O)[C@@H]2CCCN2S(C)(=O)=O)sc(C(N)=O)c1C	nt	-0.1
107	O=C(Sc1cccc2cccnc12)N1CCOCC1	nt	-0.6
108	CC1CCCC(C)N1CCCNC(=O)c1csc2c1CCCC2 (centres undefined)	-0.21	-0.85
109	CC(C)CC(=O)Nc1cccc(-c2cn3ccsc3n2)c1	0.24	-0.7
110	CC(C)=NOC(=O)Nc1ccc(C(F)(F)F)cc1	-0.03	nt

(next part)
nr	Compound	CapD inh	AID504770
111	O=C(NCC1CCCO1)c1nn(-c2ccc(Cl)cc2)nc1CO (centres undefined)	-0.73	3.1
112	COC(=O)Nc1c(Cl)nsc1S(=O)(=O)Cc1ccccc1	0.53	-0.2
113	O=C(Cn1cnc2ccccc21)NN=C1C2CC3CC(C2)CC1C3	nt	0.5
114	CN(C)c1ccc(C(=O)OCC(=O)c2cccc(C(F)(F)F)c2)cc1	-0.32	-0.2
115	N#CC1(C#N)C2C=CC(C2)C1(C#N)C#N	0.77	-5.9*
116	CC(C)C(C(=O)Nc1nccs1)c1ccc(Cl)cc1 (centres undefined)	0.17	0.05

Only part of the results is shown; count on the stated rates, not on these rows.
